VACV Venus inh: vaccinia inhibition (Venus reporter); Vaccinia virus Venus reporter expression, fluorescence; Potency, µM (series often up to 36.5 µM), for inactives: top-dose activity change, negative = inhibition, most hits filed as inhibitors; 330,000 compounds, 0.46% hits; active means well fitted inhibition curve with a large enough effect; inconclusive means small, poorly fitted or top-dose-only effect; inactive means no such curve, though single readings can be large or run the other way; tested in A549 cells; further: nearly all actives have a fitted effect of over 30% in size; inactives centre near -10
Vaccinia mCherry: inhibitors of vaccinia virus infection (mCherry reporter signal); Potency, µM (series often up to 36.5 µM), for inactives: at the highest dose activity change, negative = inhibition, usual class: inhibitors; AID 720579; 310,000 compounds, 0.63% hits; Vaccinia virus mCherry reporter infection, fluorescence; about a quarter of the inactives have no number; active = well fitted inhibition curve with a large enough effect; inconclusive = small, poorly fitted or top-dose-only effect; inactive = no such curve, though single readings can be large or run the other way; tested in A549 cells; further: nearly all actives have a fitted effect of over 35% in size; inactives centre near -10
Active calls of the source: *; i = inactive; u = inconclusive; x = no result given; & = joins results of further samples; [ ] = remark or other dose. On the % scale 0 is the no-effect control and ±100 the full control effect; potency means the concentration at half of the fitted maximal effect.

| item | molecule | VACV Venus inh | Vaccinia mCherry |
| --- | --- | --- | --- |
| 1 | CC1(C)OC(=O)C2=C(C[C@@H](C3CCCC3)O[C@H]2c2ccc(Cl)cc2)O1 | -2% | 1% |
| 2 | CC(=O)Nc1ccccc1NC(=O)C/C(C)=N/NC(=O)C(=O)N1CCCCC1 | -5% | -7% |
| 3 | CCOc1ccccc1NC(=O)COC(=O)c1c(CC)noc1C | -16% | -4% |
| 4 | COCCN(C(=O)CSc1n[nH]c(-c2ccc(OC)cc2)n1)c1c(N)n(Cc2ccccc2)c(=O)[nH]c1=O | -6% | i |
| 5 | CC1CCCC(C)N1C(=O)COc1ccc(F)cc1 (stereo not drawn) | -14% | -18% |
| 6 | COc1ccc(CNC[C@@H](CCCCN(C)Cc2ccc(OC)cc2)N2C[C@H](c3ccccc3)N(CCc3ccc(Cl)c(Cl)c3)C(=O)C2=O)cc1 | 22µM* | u |
| 7 | CCOc1cc(OCC)cc(C(=O)Nc2cccc(C(C)=O)c2)c1 | -16% | -22% |
| 8 | CN(C)CCCC1Sc2ccccc2Sc2ccccc21 (stereo not drawn) | -20% | -6% |
| 9 | CCC(COC)NC(=O)c1cnn(-c2ncc3c(n2)-c2ccccc2CCC3)c1C (stereo not drawn) | -17% | -2% |
| 10 | CC1Cc2nc(SCC(=O)NCC3CCCO3)n(C)c(=O)c2S1 (stereo not drawn) | -10% | i |
| 11 | O=C(N1CCOCC1)N(CCN1CCOCC1)Cc1cccc2ccccc12 | -15% | -16% |
| 12 | Cc1ccc(Cn2ccnc2SCC(=O)Nc2ccccc2C(F)(F)F)cc1 | -5% | i |
| 13 | CC12CC3CC1C(C(=O)O2)C3C(=O)O (stereo not drawn) | -1% | -7% |
| 14 | CN1C(=O)c2cccc3c(S(=O)(=O)NCCc4ccccc4)ccc1c23 | -13% | -6% |
| 15 | COc1ccc(OC)c(/C=N/NC(=O)CCc2ccc(O)c(O)c2)c1 | -16% | -17% |
| 16 | CCc1cccc(NC(=O)Cn2ncc3c([nH]c4ccc(C)cc43)c2=O)c1 | -6% | -1% |
| 17 | OCC(O)C[n+]1cccc(Br)c1 (stereo not drawn) | -13% | 38%[activator] |
| 18 | Cc1nn(C2CCS(=O)(=O)C2)c(Cl)c1/C=C/C(=O)OCC(=O)N(C)C (stereo not drawn) | -17% | -4% |
| 19 | COC(=O)c1ccc2c(c1)c(-c1ccccc1)c(-c1ccccc1)n2C | -1% | -14% |
| 20 | C=CCn1c(SCC(=O)NC2CCS(=O)(=O)C2)nnc1-c1cc2c(s1)CCC(CC)C2 (stereo not drawn) | -25% | -29% |
| 21 | CCc1cccc2c(C(=O)CSc3nncn3-c3ccc(OC)cc3)c[nH]c12 | -24% | -4% |
| 22 | NS(=O)(=O)c1ccc(NC(=O)C2CCCN(S(=O)(=O)c3ccc(F)cc3)C2)cc1 (stereo not drawn) | -8% | i |
| 23 | Cc1ccc(NC(=O)C(C)OC(=O)Cc2c[nH]c3ccccc23)cc1S(=O)(=O)N1CCOCC1 (stereo not drawn) | -13% | -22% |
| 24 | CSc1nc2nc3c(c(=O)n2[nH]1)CCCC3 | -6% | x |
| 25 | Cc1nc(-c2ccc(Cl)cc2)sc1CCNC(=O)c1ccc(C(F)(F)F)cc1 | 3% | -9% |
| 26 | CC1Cc2cc(/C(O)=C3/C(=O)C(=O)N(CCCN(C)C)C3c3ccncc3)ccc2O1 (stereo not drawn) | -9% | x |
| 27 | Cc1ccc(OCCNC(=O)/C=C/c2ccccc2)cc1C | -2% | -3% |
| 28 | COc1ccc(C(=O)C[n+]2cccc3cc(OC)ccc32)cc1 | -14% | -21% |
| 29 | CCC12CN(C(=O)c3ccc(OC)cc3)CC(CC)(CN(C(=O)c3ccc(OC)cc3)C1)C2=O | -19% | i |
| 30 | CCCCc1cc(=O)oc2cc(C)cc(OCC(=O)NCc3ccncc3)c12 | -20% | -10% |
| 31 | COc1cccc(C(=O)C2CCCN(Cc3ccc4nsnc4c3)C2)c1 (stereo not drawn) | 0% | -19% |
| 32 | COc1ccccc1N1CCN(C(c2ccc(N(C)C)cc2)c2nnnn2CCc2ccccc2)CC1 (stereo not drawn) | -15% | -20% |
| 33 | CCOc1ccc(NC(=S)N(CCc2c(C)[nH]c3ccc(C)cc23)Cc2cccnc2)cc1 | -17% | -23% |
| 34 | COc1ccc(-n2c(SCC(=O)Nc3cccc4ccccc34)nc(O)cc2=O)cc1 | -4%[7.34 µM] | -2%[7.34 µM] |
| 35 | Oc1c(Br)cc(/C=N/n2c(-c3ccccc3)n[nH]c2=S)cc1Br | -4% | i |
| 36 | C=CCn1c(SCC(=O)N2CCOCC2)nc2c([nH]c3ccccc32)c1=O | -8% | i |
| 37 | CCCN1C(=O)NC2(O)C(=O)c3ccccc3C12O (stereo not drawn) | -9% | x |
| 38 | CCc1ccc2nc(SCC(=O)Nc3ccccc3N3CCOCC3)c(C#N)cc2c1 | -8% | i |
| 39 | CCOC(=O)CSC1=C(C#N)C(c2ccccc2OC)CC(=O)N1 (stereo not drawn) | -17% | -11% |
| 40 | COc1ccccc1N1CCN(S(=O)(=O)CCNC(=O)C2CCCC2)CC1 | -20% | -18% |
| 41 | COCCNc1nnc(SCC(=O)Nc2sc3c(c2C(=O)c2ccccc2)CCCC3)s1 | u | -22% |
| 42 | Oc1ccc(C(c2nnnn2CCc2ccccc2)N2CCN(c3nc4ccccc4s3)CC2)cc1 (stereo not drawn) | -6% | -11% |
| 43 | Cc1csc(NC(=O)CSc2nc(=O)cc(N)n2-c2ccc(F)cc2)n1 | -21% | i |
| 44 | O=S(=O)(c1ccc(OCC2CO2)cc1)c1ccc(OCC2CO2)cc1 (stereo not drawn) | u | -21% |
| 45 | CC[C@@H]1C=C(C(=O)O)[C@H](c2ccc(OC)c(OC)c2)N1S(=O)(=O)c1ccc(C)cc1 | 7% | -8% |
| 46 | CC(NS(=O)(=O)OCC(Cl)(Cl)Cl)c1ccc(Br)cc1 (stereo not drawn) | -22% | i |
| 47 | C=CC(C)(C)c1c2occc2c(O)c2ccc(=O)oc12 | -12% | -4% |
| 48 | Cc1ccc(NC(=O)CSc2nnc(COc3ccccc3C)o2)cc1 | -13% | -2% |
| 49 | CC(=O)c1ccc(NC(=O)c2nc(-c3ccccc3)n(-c3ccccc3Cl)n2)cc1 | -6% | -21% |
| 50 | Cc1ccc(C(=O)c2cc([N+](=O)[O-])ccc2N2CCOCC2)c(C)c1 | -10% | u |
| 51 | Cc1ccccc1OCc1ccc(-c2nc(C#N)c(N3CCC(C(N)=O)CC3)o2)o1 | -18% | -14% |
| 52 | CC(C)NC(=O)c1ccccc1NC(=O)CN(c1ccc2c(c1)OCO2)S(C)(=O)=O | 0% | -13% |
| 53 | Cc1cccc(N(CC(=O)NC(C)C)C(=O)c2ccc(N3CCCC3)nc2)c1 | -3% | -12% |
| 54 | Cc1c(C(=O)Nc2ccc(Oc3ccccc3)cc2)sc2nc3n(c(=O)c12)CCC3 | u | x |
| 55 | COc1ccc(-n2nnnc2SCC(=O)N2CCOCC2)cc1 | -5% | i |
| 56 | C1COCCNCCOCCOCCN1 | 3% | -6% |

Continued:
| item | molecule | VACV Venus inh | Vaccinia mCherry |
| --- | --- | --- | --- |
| 57 | COc1ccc(C2Oc3nc(SC)nnc3-c3ccccc3N2C(C)=O)cc1 (stereo not drawn) | -1% | 8% |
| 58 | Cc1c(Cl)cccc1NC(=O)CN1C(=O)COc2ccc(S(=O)(=O)N3CCCCCC3)cc21 | -18% | -24% |
| 59 | COc1c(-c2ccc(O)c(O)c2)oc2cc(O)cc(O)c2c1=O | -3% | -7% |
| 60 | COC(=O)c1cc(NC(=O)c2cccs2)ccc1N1CCOCC1 | 6% | -11% |
| 61 | CC1(C(=O)NCc2cccc(Cl)c2)Cc2c(-c3cccc(C(N)=O)c3)ccnc2O1 (stereo not drawn) | -14% | 5% |
| 62 | Cc1[nH]c(=S)[nH]c(=O)c1Cc1ccc(OCC(C)C)cc1 | -3% | i |
| 63 | CC(C)(C)c1ccc(C(=O)NCCCN2CCN(CCCNC(=O)c3ccc(C(C)(C)C)cc3)CC2)cc1 | 11µM* | u |
| 64 | CS(=O)(=O)N1CCCC(C(=O)NCCCN2CCN(Cc3ccccc3)CC2)C1 (stereo not drawn) | -2% | -7% |
| 65 | Cc1cc(C)c(S(=O)(=O)Nc2ccc(OCC(=O)O)cc2)c(C)c1 | 3% | 5% |
| 66 | O=C(O)c1ccc(N2CCCCCC2)c(N2C(=O)c3ccccc3C2=O)c1 | -8% | x |
| 67 | O=C(COC(=O)c1ccccc1Br)NCCc1ccc(F)cc1 | -1% | i |
| 68 | Cc1ccc2onc(CC(=O)N3CCN(c4ccccc4F)CC3)c2c1 | -10% | -15% |
| 69 | CC(Sc1nc(O)c(-c2ccccc2)c(=O)[nH]1)C(=O)Nc1ccc(Cl)cc1 (stereo not drawn) | -5% | -23% |
| 70 | Cc1ccc(-c2nnc(Oc3cccc(C)c3)c3ccccc23)cc1 | -4% | -15% |
| 71 | O=C(CSc1nnnn1C1CCCCC1)NCc1cccs1 | -16% | -6% |
| 72 | Cc1ccc(C(=O)CC2(O)C(=O)N(Cc3ccc4c(c3)OCO4)c3ccccc32)cc1 (stereo not drawn) | -15% | -19% |
| 73 | Cc1ccc(CN(C)c2nc(-c3cccnc3)nc3ccccc23)o1 | -4% | -1% |
| 74 | CC(C)(C)OC(=O)NCCC(=O)N/N=C/c1cccc2cccnc12 | -9% | -15% |
| 75 | Cc1occc1-c1nnc(SCC(=O)c2ccc(F)cc2)n1Cc1ccco1 | -16% | -15% |
| 76 | Cc1ccc(N(CC(=O)N2CCc3ccccc32)C2=NC(=O)CS2)cc1 | 8% | i |
| 77 | CCc1ccc(OC)c(S(=O)(=O)Nc2ccccc2C)c1 | -23% | -7% |
| 78 | COc1cc(Cl)cc2c1Sc1ccccc1/C2=C/CCN(C)C | u | -29% |
| 79 | O=C(NCc1ccc(F)cc1)c1cc(C2CCCCN2C(=O)c2ccc(Cl)cc2)on1 (stereo not drawn) | -29% | -1% |
| 80 | CCOC(=O)CSc1nnc(-c2ccncc2)o1 | -1% | x |
| 81 | Cc1cc(C)nc(NC(=O)c2ccc(Br)cc2)n1 | -3% | -10% |
| 82 | c1ccn2c(SCc3ccc4c(c3)OCCO4)nnc2c1 | -7% | -13% |
| 83 | COc1cc(OC)c(Nc2c3c(nc4nc(-c5cccs5)nn24)CCCC3)cc1Cl | -16% | -20% |
| 84 | COc1ccc(NC(=O)c2sc3nc(C)c(C(=O)Nc4ccc(C)cc4C)c(-c4cccs4)c3c2N)cc1 | -14% | -17% |
| 85 | CC1CCc2nc3ccccc3c(C(=O)OCC(=O)NC3CCS(=O)(=O)C3)c2C1 (stereo not drawn) | -9% | -17% |
| 86 | O=C(CC(=O)Nc1ccccc1F)Nc1ccccc1F | 0% | i |
| 87 | COc1ccc(CNC(=O)c2ccc3c(c2)N(C)CCS3)cc1 | -15% | -9% |
| 88 | O=C(COC(=O)C1CC2C=CC1C2)Nc1cccc(S(=O)(=O)N2CCCCC2)c1 (stereo not drawn) | -10% | -18% |
| 89 | Cc1ccc(O)c(NC(=O)c2cc(-c3ccc(F)cc3)on2)c1 | -3%&4% | u |
| 90 | Cc1ccc(-c2nn(-c3cc(Cl)ccc3[N+](=O)[O-])c(=O)c3ccccc23)cc1 | -23% | -5% |
| 91 | NS(=O)(=O)c1ccc(NC(=O)CCCC(=O)O)cc1 | -7% | -1% |
| 92 | COC(=O)[C@H](Cc1ccccc1)NC(=O)[C@@H](N)CC(=O)O | -19%&-7% | -7% |
| 93 | O=c1c2cn[nH]c2[nH]c(=S)n1-c1cccc2ccccc12 | 2% | -18% |
| 94 | CCOc1ccc(NS(=O)(=O)c2ccc(C(=O)NCc3ccccn3)cc2)cc1 | -26% | -11% |
| 95 | C=CCNCCOCCOc1ccc(Cl)cc1C(C)(C)C | -16% | -4% |
| 96 | CC(C)(C)C(=O)Nc1ccc(S(=O)(=O)c2ccc(NC(=O)C(C)(C)C)cc2)cc1 | -16% | -7% |
| 97 | O=c1c2ccccc2nc(/C=C/c2cccnc2)n1Cc1ccccc1 | -19% | -23% |
| 98 | COc1cc(NC(=O)Cn2c(C)cc3ccccc3c2=O)cc(OC)c1OC | -6%&-14% | -17%&-21% |
| 99 | C#Cc1cccc(Nc2nc(NCCOC)nc3ccsc23)c1 | -25% | -24% |
| 100 | Cc1cc(C)c(OCC(=O)Nc2cccc(-c3nc4ncccc4o3)c2)c(Br)c1 | -24% | u |
| 101 | CN1CCN(C(=O)c2cc3c(s2)-c2ccccc2S(=O)(=O)C3)CC1 | -4% | i |
| 102 | CC(C)(C)OC(=O)NCc1ccc(CNC(=O)c2nc[nH]c2C(=O)N2CCN(c3ccccc3)CC2)cc1 | u | i |
| 103 | Cc1ccc(NC(=O)c2ccc(C(C)(C)C)cc2)cc1-n1cnnn1 | -9% | i |
| 104 | C/C=C/C(=O)Nc1cccc(C2=NOC3(C2)C[C@H](C(N)=O)N(C(=O)/C=C/C)C3)c1 (stereo partly drawn) | -8% | i |
| 105 | COc1ccc(/C=C/c2cc(C(F)(F)F)[nH]c(=O)n2)cc1OC | u | u |
| 106 | CC1=C(C#N)c2nc(N)c(C#N)c(C)c2/C1=C\c1ccc(OCC(=O)O)c(Cl)c1 | 22% | -19% |
| 107 | Cc1cccc(NS(=O)(=O)c2c(C)[nH]c(C)c2C(=O)N2CCCC2)c1 | -27%[7.34 µM] | i[7.34 µM] |
| 108 | CCOC(=O)c1c(CN(CC)CC)oc2ccc(OC)cc12 | 0% | -9% |
| 109 | COc1ccc2cc3c(N)nn(C(=O)c4ccc(OC)c(OC)c4)c3nc2c1 | -9% | 0% |
